# FPRL1 binder: ligands of human FPRL1, also counter-screen for FPR ligands; AID 441; inhibition, %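 (tested at 6.7 µM)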; FPRL1-expressing cells, fluorescent ligand binding inhibition, flow cytometry; P25090; 0.3% of 24,000 active;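 also: 0% = buffer alone and 100% = receptor blocker peptide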
# Target sequence (P25090 whole entry, looked up): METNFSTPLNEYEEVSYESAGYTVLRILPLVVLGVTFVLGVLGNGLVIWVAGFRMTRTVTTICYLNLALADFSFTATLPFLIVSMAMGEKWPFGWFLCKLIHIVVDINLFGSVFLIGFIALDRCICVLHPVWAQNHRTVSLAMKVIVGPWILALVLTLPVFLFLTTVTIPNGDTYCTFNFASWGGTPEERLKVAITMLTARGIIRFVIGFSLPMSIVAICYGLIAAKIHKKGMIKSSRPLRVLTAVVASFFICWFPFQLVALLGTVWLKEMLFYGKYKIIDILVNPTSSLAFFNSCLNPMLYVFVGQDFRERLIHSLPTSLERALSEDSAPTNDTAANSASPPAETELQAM
# VCAM-1 down imaging: suppression of endothelial VCAM-1 upregulation – imaging, high-content imaging, pooled HUVEC, TNFa stimulus (AID 456); HUVEC TNFa-induced VCAM-1 surface expression, immunofluorescence imaging; numbers were filed only for top-ranked candidate wells; 0.2% of 10,000 active; inhibition, % at 5 µM; hits with a dose series show IC50 in µM;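 active = top tenth filtered wells with inhibition above zero that passed visual or statistical confirmation; inactive = the rest, including hits rejected on review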;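 also: 0% = stimulated vehicle wells and 100% = unstimulated cells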
# FPR ligand: human FPR ligand, with FPRL1 counter-screen. FPR-expressing cells, fluorescent ligand binding, flow cytometry. inhibition, %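 (tested at 6.7 µM)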. 0.74% of 24,000 active. AID 440;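 also: 0% = buffer wells and 100% = receptor blocker peptide wells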
# Target sequence (P21462 whole entry, looked up): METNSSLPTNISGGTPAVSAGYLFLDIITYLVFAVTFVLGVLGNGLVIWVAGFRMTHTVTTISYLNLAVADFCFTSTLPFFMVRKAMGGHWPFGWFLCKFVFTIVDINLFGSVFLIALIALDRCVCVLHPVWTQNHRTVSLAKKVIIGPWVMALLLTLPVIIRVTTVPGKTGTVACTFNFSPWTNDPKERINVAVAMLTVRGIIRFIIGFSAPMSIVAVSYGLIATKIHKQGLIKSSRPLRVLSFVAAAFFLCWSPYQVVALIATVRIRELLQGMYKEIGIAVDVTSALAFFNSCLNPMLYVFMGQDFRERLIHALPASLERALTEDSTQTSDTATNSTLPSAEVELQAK
# VCAM-1 inhibition: suppression of endothelial VCAM-1 upregulation – cell-based, plate reader, pooled HUVEC, TNFa stimulus (AID 454) | HUVEC TNFa-induced VCAM-1 surface immunofluorescence, plate reader; numbers were filed only for top-ranked candidate wells | inhibition, % at 5 µM | 0.2% of 10,000 active;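 active = compound among top-ranked inhibitors of TNF-induced VCAM-1 adhesion protein staining, with the hit upheld by image or statistical review; inactive = the rest, including hits rejected on review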;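 also: 0% = TNFa with vehicle and 100% = cells without TNFa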
# VCAM-1 up imaging: enhancers of VCAM-1 display on endothelial cells, imaging, high-content imaging, pooled HUVEC, TNFa stimulus (AID 457); Pooled HUVEC, TNFa-induced VCAM-1 immunofluorescence imaging; hits of this screen are not shown here; calls only; 0.2% of 10,000 active;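 active = a top-ranked rise in VCAM-1 staining upheld on image or statistical review; inactive = the rest, including candidates rejected on review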;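 also: compounds tested at 5 µM in the well; cells exposed to compound for 24 hours before fixing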
# * = called active by the depositor; i = inactive; / = not tested or not shown.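 The calls were made as follows, unless noted: active = mean above 30%; inconclusive = self-fluorescent; inactive = the rest.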
mol	VCAM-1 up imaging	VCAM-1 inhibition	FPRL1 binder	VCAM-1 down imaging	FPR ligand
Cc1cc(SCC(=O)c2ccccc2)n2nc(C)nc2n1	/	/	0	/	-2
CCOC(=O)N1CCC(NC(=O)C2CCN(S(=O)(=O)c3cnc[nH]3)CC2)CC1	/	/	0	/	-1
CCC(=O)N1CCc2cc(S(=O)(=O)CCC(=O)NCCC3=CCCCC3)ccc21	/	/	-5	/	-1
Cc1nc(NC2=NCN(CC3CCCO3)CN2)nc2ccccc12 (stereo not drawn)	i	i	-3	i	-2
CCn1c(=O)cc(OCC(=O)NCCC(C)C)c2ccccc21	/	/	0	/	3
CCCCOc1ccc(C(C)NC(=O)C2CCCN(S(=O)(=O)CC)C2)cc1 (stereo not drawn)	/	/	7	/	14
CC(NC(=O)C12CC3CC(CC(C3)C1)C2)C(=O)NCCN(C)C (stereo not drawn)	/	/	-1	/	6
Cc1ccc(-c2nc(CS(=O)CC(=O)NC3CCCC3)c(C)o2)cc1 (stereo not drawn)	/	/	1	/	8
Cc1cc2ccccc2c(=O)[nH]1	/	/	4	/	3
O=C(C1CCN(S(=O)(=O)c2cccc3cccnc23)CC1)N1CCN(c2ccccc2)CC1	/	/	0	/	-5
Cc1cc(=O)[nH]c(SCC(=O)Nc2nc(-c3ccccc3)cs2)n1	/	/	2	/	6
COc1ccc(CN(C)CC(=O)c2c(N)n(Cc3ccccc3)c(=O)n(C)c2=O)c(OC)c1	i	i	-1	i	-2
O=C(NCc1ccco1)C1Cc2ccccc2CN1S(=O)(=O)c1ccccc1F (stereo not drawn)	i	i	-1	i	2
Cc1cc2oc(=O)cc(C)c2cc1NC(=O)CCC(=O)O	/	/	5	/	-1
Cc1cccc2sc(NC(=O)CN(C)S(=O)(=O)c3ccc(Br)s3)nc12	/	/	-12	/	0
COc1ccc(N2CCN(S(=O)(=O)c3cccc4cccnc34)CC2)cc1	/	/	-6	/	-5
O=C1C/C(=C/NCc2ccccc2)C(=O)N1	i	i	1	i	-1
Cc1nc(CSc2nnc(C)s2)cs1	/	/	7	/	-7
Cn1cnc(S(=O)(=O)NCc2cccs2)c1	i	i	2	i	-5
O=C(O)C1C2C=CC3(CN(Cc4ccco4)C(=O)C13)O2 (stereo not drawn)	/	/	-2	/	-8
COC(=O)CN1C(=O)C(O)(CC(=O)c2ccc(Br)cc2)c2ccccc21 (stereo not drawn)	/	/	1	/	-4
COc1ccccc1Oc1c(C)oc2cc(OC(=O)c3ccco3)ccc2c1=O	/	/	0	/	93*
O=C(O)C1CCCCC1C(=O)N1CC=C(c2ccccc2)CC1 (stereo not drawn)	/	/	1	/	0
CCOC(=O)c1cc2c(=O)n3ccccc3nc2n(C(C)C)c1=NC(=O)c1ccncc1	/	/	-3	/	-1
CC1CCN(C(=O)CSCC(=O)Nc2nc(-c3cccs3)cs2)CC1	i	i	-2	i	1
Cc1ccc(-c2noc(CCC(=O)Nc3ccc(C)cn3)n2)cc1	/	/	-4	/	0
Cc1ccc(S(=O)(=O)Nc2cc(C(=O)NCCN(C)C)ccc2N2CCCCC2)cc1	/	/	-2	/	0
O=C(O)C1CCCCC1C(=O)Nc1ccccc1Nc1ccccc1 (stereo not drawn)	/	/	-1	/	8
CC[N+](CC)(CCO)CCCN1C(=O)C2CC=C(Cl)CC2C1=O (stereo not drawn)	/	/	1	/	2
COc1ccc(N(CC(=O)Nc2cccc(OC)c2)S(=O)(=O)c2c(C)nn(C)c2C)cc1	/	/	-1	/	2
COC(=O)CCC(NC(=O)OCc1ccccc1)C(=O)NC(CC(C)C)C(=O)OC (stereo not drawn)	/	/	8	/	2
COCCN1Cc2cccc(C(=O)Nc3cccc(OC)c3)c2C1=O	/	/	-2	/	1
CCN(CCCNC(=O)CCc1nc(-c2ccc(OC)cc2)no1)c1cccc(C)c1	/	/	4	/	-13
Cc1nc2ccc(S(=O)(=O)NCC(=O)N3CCc4ccccc4C3)cc2s1	i	i	9	i	2
CCCCNC(=O)c1cc(-c2ccc(F)cc2)on1	i	i	2	i	2
COCC(=O)NC(C)c1nc2ccccc2[nH]1 (stereo not drawn)	/	/	14	/	2
CCc1ccc(S(=O)(=O)NCc2cn3ccsc3n2)s1	/	/	-3	/	-5
CCCN(CCC)CCNC(=O)C1CCN(Cc2nc(-c3ccc(Cl)cc3)oc2C)CC1	/	/	-2	/	4
CCCCNC(=O)c1cn(C)c2ccc(S(=O)(=O)N3CCOCC3)cc2c1=O	/	/	-6	/	-5
Cc1cc(C(F)(F)F)nn1CC(=O)Nc1cccnc1	/	/	4	/	-5
CC(C)OCCCNC(=O)Cn1nc(-c2ccccc2)ccc1=O	/	/	6	/	-9
COC(=O)c1ccc(-c2sc3nc(N4CCOCC4)c4c(c3c2N)CCCC4)o1	i	i	4	i	-4
Cc1c(C(=O)OCc2ccccc2)nnn1-c1nonc1N	/	/	-4	/	-8
O=c1[nH]c(=O)n(C2CCCCCC2)c(O)c1C=NCc1ccc(F)cc1	i	i	-12	i	-1
CCOc1ccc(NS(=O)(=O)c2ccc3[nH]c(=O)oc3c2)cc1	/	/	-3	/	-11
CC(=O)c1ccc(NC(=O)CCc2c(C)nc3ncnn3c2C)cc1	i	i	4	i	9
CC1Cc2nc(SCC(N)=O)n(Cc3ccccc3)c(=O)c2S1 (stereo not drawn)	i	i	2	i	-3
Cc1ccc(-n2nnc3c(=O)n(CC(=O)N4CCC(C)CC4)cnc32)cc1	/	/	-4	/	1
COc1ccc(C2C(C(C)=O)=C(O)C(=O)N2C)c(OC)c1 (stereo not drawn)	i	i	1	i	-3
COC(=O)c1ccc(CSc2nc3ccccc3c(=O)n2Cc2ccco2)o1	i	i	-8	i	4

# The list continues:
mol	VCAM-1 up imaging	VCAM-1 inhibition	FPRL1 binder	VCAM-1 down imaging	FPR ligand
COc1cc2c(cc1OC)C(C(=O)N1CCN(c3ccccn3)CC1)C(c1cccs1)N(C)C2=O (stereo not drawn)	/	/	0	/	0
Nc1nnc(N2CCCCC2)s1	/	/	-12	/	0
S=c1[nH]nc(-c2ccncc2)n1CC1CCCO1 (stereo not drawn)	/	/	5	/	2
CN1C(=O)CS(=O)c2ccc(C(=O)NCCC3=CCCCC3)cc21 (stereo not drawn)	/	/	1	/	2
O=C(NCc1ccccn1)c1ccc2ccccc2n1	/	/	-7	/	2
COc1ccc(C(=O)NCc2nnc(SCC(=O)Nc3cc(C)cc(C)c3)o2)cc1OC	i	i	-3	i	2
Cc1noc(C(=O)Nc2c(C)n(C)n(-c3ccccc3)c2=O)c1Cl	/	/	1	/	-2
COC(=O)CC[C@@H](C(=O)O)N1C(=O)c2ccccc2C1=O	/	/	0	/	4
CC1CCCCN1CCNC(=O)CC1Oc2ccccc2NC1=O (stereo not drawn)	/	/	2	/	-6
COC(=O)NCc1cccc(CNC(=O)OC)c1	/	/	-2	/	-3
CC(C)C1Cc2c(C#N)c(N)sc(=S)c2CO1 (stereo not drawn)	i	i	5	i	-5
CC(=O)c1cnc2cc(-c3ccccc3)nn2c1C	i	i	8	i	-2
COc1ccc(S(=O)(=O)Nc2cc(C)c(O)c(S(=O)(=O)c3ccccc3)c2)cc1	/	/	-5	/	12
CCOc1cc(C2NC(=O)NC(O)(C(F)(F)F)C2C(=O)c2ccccc2)ccc1OC (stereo not drawn)	i	i	4	i	0
CCC(C)(C(=O)NC1CCCCC1)N(C)C(=O)c1ccccn1 (stereo not drawn)	/	/	10	/	1
CC(C)CNS(=O)(=O)c1ccc(CCC(=O)N2CCOCC2)cc1	i	i	0	i	-2
COc1ccc(C2C(C(=O)N3CCOCC3)c3ccccc3C(=O)N2c2ccc(OC)cc2)cc1 (stereo not drawn)	/	/	0	/	9
O=C(CN1C(=O)c2ccccc2S1(=O)=O)NC1CCCCCC1	/	/	-1	/	-3
CCOc1ccc(OC(=O)c2cccnc2)cc1	/	/	-2	/	1
CCOC(=O)C1CCCN(Cc2nc(N)nc(Nc3ccc(C)cc3)n2)C1 (stereo not drawn)	i	i	0	i	6
COc1cccc(C2CC(c3ccc(F)cc3)Nc3nc(N)nn32)c1 (stereo not drawn)	i	i	5	i	4
Cc1ccc(-n2c(Cc3cccn3C)nnc2SCC(=O)NCc2ccc3c(c2)OCO3)cc1	i	i	3	i	3
COC(=O)C(CCSC)NC(=O)CNC(=O)C1CCCCC1 (stereo not drawn)	/	/	6	/	6
Cc1[nH]nc2c1C1(C(=O)N(Cc3ccc(Cl)cc3)c3ccccc31)C(C#N)=C(N)O2 (stereo not drawn)	i	i	1	i	10
COc1ccc2cc(C(=O)N3CCCCCC3)sc(=O)c2c1OC	/	/	6	/	0
O=C(NC1(C(F)(F)F)C(=O)Nc2c1c(=O)[nH]c(=O)n2Cc1ccco1)C1CC1 (stereo not drawn)	/	/	3	/	0
Cc1csc(NC(=O)CSc2nnc(Cc3cccn3C)n2CCc2ccccc2)n1	/	/	-1	/	3
O=C(c1cc2ccccc2oc1=O)N1CCN(c2ccc(N3CCOCC3)nn2)CC1	i	i	-4	i	-3
O=C(NC1CCCc2ccccc21)C1CCC(CNc2c(N3CCOCC3)c(=O)c2=O)CC1 (stereo not drawn)	/	/	-1	/	-2
O=c1c2ccccc2sn1-c1ccc(S(=O)(=O)N2CCCCC2)cc1	i	i	9	i	-5
CCCOC(=O)c1ccc(OCC(O)CN2CCN(C(=O)c3ccccc3)CC2)cc1 (stereo not drawn)	/	/	2	/	12
CC(C)c1ccc(S(=O)(=O)c2n[nH]n3c2nc(=O)c2ccccc23)cc1	/	/	-3	/	-1
COc1cc(NS(=O)(=O)c2ccc(F)cc2)c(C(=O)O)cc1OC	/	/	-2	/	1
Cc1cnc(C(=O)Nc2ccc(N3CCOCC3)cc2)cn1	i	i	-2	i	-1
CCc1ccc(N2CC34C=CC(O3)C(C(=O)OC)C4C2=O)cc1 (stereo not drawn)	i	i	-3	i	-4
CC1CCCC(C)N1c1nnc(N)s1 (stereo not drawn)	/	/	2	/	-14
Fc1ccc2nc(N3CCCCC3)sc2c1	/	/	-4	/	-2
Cc1cc(C(=O)Nc2cccc(O)c2)c(C)o1	i	i	0	i	-1
CCOC(=O)c1[nH]c(C)c(C(=O)N2CCN(c3cccc(Cl)c3)CC2)c1C	/	/	-11	/	5
COC(=O)c1ccc(OCC2c3cc(OC)c(OC)cc3CCN2C(=O)c2ccco2)cc1 (stereo not drawn)	/	/	-4	/	2
COc1cc(C(=O)NCc2nnc(SCC(=O)NCc3ccccc3)o2)cc(OC)c1OC	/	/	-23	/	-9
COC(=O)c1ccc2c(=O)n(C3CCCCC3)c(SCC#N)nc2c1	/	/	-4	/	0
CCC(C)[C@@H](C(=O)Nc1ccc2c(c1)OCO2)N1Cc2ccccc2C1=O (stereo partly drawn)	/	/	1	/	1
CCCN(CCC)CCCNC(=O)c1ccc2c(c1)N(CC)C(=O)c1ccccc1S2=O (stereo not drawn)	/	/	8	/	0
COc1cccc(-n2c(SCC(=O)NCCC3=CCCCC3)nc3n[nH]c(C)c3c2=N)c1	/	/	-7	/	0

# The list is partial (hit frequency here may not be typical).
